# VCAM-1 up: enhancers of VCAM-1 display on endothelial cells, cell-based, plate reader, pooled HUVEC, TNFa stimulus (AID 455); HUVEC TNFa-induced VCAM-1 immunofluorescence, plate reader; numbers were filed only for top-ranked candidate wells; 0.2% of 10,000 active; augmentation, % at 5 µM;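 active = a compound raising TNF-alpha-driven VCAM-1 surface staining, with its hit status upheld on visual or statistical review; inactive = the rest, including hits rejected on review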;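 also: 0% = TNFa with vehicle and 100% = strongest image-checked hit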
# 26S disassembly: blocks ATP-dependent breakdown of the yeast 26S proteasome | AID 751 | anti-FLAG beads, GFP-proteasome disassembly, flow cytometry | inhibition of disassembly, % (test concentration not listed) | 0.2% of 24,000 active;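 active = above 40%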;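 also: plate controls were ATP control with full disassembly for no effect and ATP-gamma-S intact proteasomes for full effect; higher percent means more bead fluorescence retained so stronger block of disassembly; stock transfer was 100 nL into about 10 µL; wells with too few beads may also be inconclusive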
# * = called active by the depositor; i = inactive; . = not tested or not shown. This is a subset (hit frequency here may not be typical).
SMILES,VCAM-1 up,26S disassembly
CCOC(=O)C1CCCN(C(=O)CN(c2ccc(OC)cc2)S(=O)(=O)c2c(C)noc2C)C1 (stereo not given),.,2.7
Cn1c(=O)cc(OCC(=O)NCCCN2CCN(c3ccccc3F)CC2)c2ccccc21,.,-1.2
O=C(c1cnc2ccccn2c1=O)N1CCCc2ccccc21,.,-2.5
CC(OC(=O)c1cccc(NS(C)(=O)=O)c1)C(=O)Nc1ccc(N2CCOCC2)cc1 (stereo not given),i,-12
COC(=O)Cn1ncn2cccc2c1=O,.,0.5
O=S(=O)(Nc1ccc2c(c1)oc1ccccc12)N1CCCC1,.,0.1
Cc1ccc2nc(NC(=O)CN(C)S(=O)(=O)c3cccc4nsnc34)sc2c1,i,0.0
CCC(=O)c1cc2c(C)cc(=O)oc2c(C)c1O,.,1.8
COc1ccccc1OCC(=O)NCC1CCCCC1,i,0.0
CCC(C)(NC(=O)c1ccccn1)C(=O)NC1CCCCC1 (stereo not given),.,-0.8
COC(=O)Cn1c2c(c3cc(C)ccc31)CCCC2,i,-1.2
O=C(Cn1cnc2c(nnn2Cc2ccc(Cl)cc2)c1=O)OCc1ccccc1,.,-0.4
O=C(O)c1ccc(CSc2ncn[nH]2)cc1,i,-0.3
COC(=O)NC1CSCC1OC(=O)CN1C(=O)c2ccccc2C1=O (stereo not given),.,0.1
COC(=O)C1=C(NC(=O)c2cccc(C)c2)CCS1,.,0.7
COc1ccc(OCCOC(=O)c2cccs2)cc1,i,0.6
Cc1c(/C(O)=C2/C(=O)C(=O)N(CCN3CCOCC3)C2c2cccs2)cnn1-c1ccccc1 (stereo not given),21,2.2
CCOc1ccc(NC(=O)CSc2nnnn2CC(=O)O)cc1,i,0.6
CCCOc1ccc(C2C(C(=O)c3ccc(C)o3)=C(O)C(=O)N2Cc2cccnc2)cc1 (stereo not given),i,2.2
COc1ccccc1OCCSc1nnnn1-c1ccc(C)cc1,.,0.5
CC1CCN(c2nc3c(c(=O)n(C)c(=O)n3C)n2Cc2ccccc2)CC1,i,3.7
Cc1onc(-c2c(Cl)cccc2Cl)c1C(=O)NCCCN1CCOCC1,i,0.6
O=C(O)c1cc2cc(OCc3ccccc3)ccc2[nH]1,.,0.6
Cc1cc(C(=O)N2CCN(c3ncccn3)CC2)cs1,i,-0.3
CCOC(=O)C1=C(C)N(C)C(C)=C(C(=O)OCC)C1c1cccnc1,i,-0.1
CCCC(=O)Nc1ccc(NC(=O)C2CC2)cn1,i,-2.5
COCCNC(=O)C(C)N(c1ccc(Oc2ccccc2)cc1)S(C)(=O)=O (stereo not given),i,1.4
CN1CCN(c2nc3c(c(=O)[nH]c(=O)n3C)n2CCSc2nc3ccccc3s2)CC1,i,-0.7
O=C(NC1CCCC1)C(c1cccs1)N(Cc1ccco1)C(=O)Cn1nnc(-c2cccs2)n1 (stereo not given),i,-0.5
COc1cccc(NC(=O)CN2CCN(S(=O)(=O)c3ccc(C(C)C)cc3)CC2)c1,.,-1.2
O=C(O)c1ccc(C2SCC(=O)N2Cc2ccccc2)cc1 (stereo not given),i,-3.0
COc1cccc(-c2nc(CS(=O)(=O)CC(=O)Nc3cc(C)ccc3C)c(C)o2)c1,i,0.2
Cc1ccccc1-n1c(=O)cc(NCC2CCCO2)[nH]c1=O (stereo not given),.,-0.9
CCOc1ccc(NC(=O)c2ccccc2CO)cc1,.,-1.2
CCOC(=O)c1c(COC(=O)c2ccco2)nc2ccccc2[n+]1[O-],i,-1.4
CCOC(=O)N1CCN(C(=O)c2ccc3nc4cc(Cl)ccc4c(=O)n3c2)CC1,i,0.9
COc1ccc(-c2cn3c(C)c(C(=O)NCCN4CCOCC4)sc3n2)cc1,.,2.9
CCCS(=O)(=O)N1CCC(C(=O)N2CCC(Cc3ccccc3)CC2)CC1,.,1.1
O=C(NCCCN1CCN(c2ccccc2F)CC1)C1CCC(=O)N1C1CCCC1 (stereo not given),.,0.1
CCNC(=O)c1sc(=S)n(CC)c1N,.,0.5
COc1ccccc1N1CCN(C(=O)c2cc3cc(Br)ccc3oc2=O)CC1,.,-0.5
Cc1ccc2nc3c(cc(C(=O)NCc4ccccc4)c(=N)n3CCCn3ccnc3)c(=O)n2c1,.,1.3
CCOC(=O)CNC(=O)c1cn(CC(C)C)c(=O)c2cc(OC)c(OC)cc12,.,-0.6
c1cncc(-c2nc3ccccc3o2)c1,.,0.9
c1ccc2c(c1)c1c3n2CCNC3CCC1 (stereo not given),i,0.9

# Random excerpt: five compounds from above, in no set order.
SMILES,VCAM-1 up,26S disassembly
CCNC(=O)c1sc(=S)n(CC)c1N,.,0.5
COc1ccccc1N1CCN(C(=O)c2cc3cc(Br)ccc3oc2=O)CC1,.,-0.5
CCOc1ccc(NC(=O)c2ccccc2CO)cc1,.,-1.2
CCOC(=O)c1c(COC(=O)c2ccco2)nc2ccccc2[n+]1[O-],i,-1.4
Cc1ccc2nc3c(cc(C(=O)NCc4ccccc4)c(=N)n3CCCn3ccnc3)c(=O)n2c1,.,1.3

# Next part
SMILES,VCAM-1 up,26S disassembly
CC(C)(C)OC(=O)N1CCN(c2ccc(NC(=O)c3cc4ccccc4oc3=O)cc2)CC1,i,-2.4
Cc1ccc(-n2c(N)c(C(N)=O)sc2=S)c(C)c1,.,4.3
O=C(CCCn1ncn2c(cc3occc32)c1=O)N1CCc2ccccc2C1,i,-0.7
COc1ccc(CCNC(=O)c2nnn(-c3ccccc3OC)c2N)cc1OC,.,-1.9
COC1CCCCC1NS(=O)(=O)c1ccc(Cl)cc1 (stereo not given),.,1.7
COC(=O)c1cc2c(cc1NC(=O)CSCCc1ccccn1)OCO2,.,0.1
CCOC(=O)CSc1nnc(CNC(=O)c2ccc(OC)cc2OC)n1C,.,-0.7
O=C(NCCCN1CCN(Cc2ccccc2)CC1)C1CCN(S(=O)(=O)N2CCCC2)CC1,.,-1.9
COc1cc(NC(=O)Cc2nn(C)c(=O)c3ccccc23)cc(OC)c1,i,-0.3
O=C(Cn1cc2c(n1)CCCCC2)N1CCCCC1,.,-3.1
COc1ccc(-c2[nH]c(-c3ccc(F)cc3)nc2SCC(=O)NCc2ccco2)cc1OC,.,2.0
c1cncc(-c2nnc3sc(-c4ccco4)nn23)c1,i,1.2
COc1cccc(CNC(=O)C2CCN(C(=O)N(C)C)CC2)c1,i,-1.3
CCC(Oc1ccc2ccccc2c1)C(=O)O (stereo not given),i,-1.8
N=c1ncn(CC(O)CN2CCOCC2)c2nc(N3CCOCC3)[nH]c12 (stereo not given),i,-0.2
CC1(C)CC(=O)c2cc(OCC(=O)NCC3CCCO3)ccc2O1 (stereo not given),.,-0.1
CN(C)C(CNS(=O)(=O)c1ccc(Br)cc1)c1cccnc1 (stereo not given),.,1.3
COc1ccc(OC)c(-n2nnnc2SCC(=O)NCc2ccc3c(c2)OCO3)c1,i,-1.5
COc1ccc(C(O)Cn2c(=N)n(CCCN(C)C)c3ccccc32)cc1 (stereo not given),i,0.9
CCn1cc(C(=O)NCc2ccco2)c(=O)c2cc(S(=O)(=O)N3CCCCCC3)ccc21,.,-0.5
Cc1noc(C)c1S(=O)(=O)Nc1ccc(C(=O)NCc2ccccc2)cc1,.,-1.0
Cn1cccc1Cc1nnc(SCC(=O)Nc2ccccc2)n1-c1ccc(F)cc1,.,-0.1
COc1cc(C(=O)O)ccc1OC(C)=O,.,0.0
Cc1cc(N2CC(C(=O)O)CC2=O)ccc1Br (stereo not given),.,-1.6
CCOC(=O)CNC(=O)CSc1nc(N(C)C)nc(N2CCOCC2)n1,i,-1.9
Cc1ccc(C(C(=O)NC2CCCCC2)N2CCCC2)cc1 (stereo not given),.,-0.8
CCN(CCNC(=O)CCCn1nc(C)n2c(cc3sccc32)c1=O)c1ccccc1,.,1.1
CCOc1cc(C(=O)NCC2CCCO2)cc(OCC)c1OCC (stereo not given),i,-0.8
CCN1CCN(Cc2c(C)[nH]c3ccc(OC)cc3c2=O)CC1,i,-2.3
O=C(O)/C=C/c1ccc(O)c(O)c1,i,-0.3
O=C1NC2(CCCCC2)N=C1c1ccc(F)cc1,.,1.0
O=C(NCC1CCCO1)C1CC(=O)N(c2ccc(F)c(Cl)c2)C1 (stereo not given),.,-0.1
Fc1ccc(C2CC(c3ccccc3)Nc3ncnn32)cc1 (stereo not given),.,0.9
CCOc1ccc(Cc2nn[nH]n2)cc1,i,-1.6
Cc1ccccc1OCCN1C(=O)NC2(CCc3ccccc32)C1=O (stereo not given),i,2.5
O=C(CSc1nccn1-c1ccc(F)cc1)Nc1ccc2c(c1)OCO2,.,-1.6
COc1cc2c(cc1OC)C(C(=O)Nc1ccc3c(c1)OCCO3)C1c3ccccc3CCN1C2=O (stereo not given),.,-0.4
O=C(CN1CC(=O)Oc2ccccc21)OCC(=O)c1cccc(Br)c1,.,0.8
O=C(Oc1ccc2c(c1)CCC2)N1CCOCC1,i,-2.1
Cc1ccc(C)c(NC(=O)CCN2CC(C)OC(C)C2)c1 (stereo not given),.,-0.8
O=C(CC1Oc2ccccc2NC1=O)NCCCN1CCCC1=O (stereo not given),.,-3.4
O=C1NCCN1Cc1ccccc1F,.,-2.7
CCCCCn1c2nc3ccccc3nc2c2c(=O)n(CC(C)C)cnc21,i,-0.4
O=C(NCc1nnc(SC/C=C/c2ccccc2)o1)c1ccco1,.,-1.7
CCOC(=O)C1CCN(S(=O)(=O)c2c(C)n[nH]c2C)CC1,.,0.7
COc1ccc(N2CCN(c3ccc(N)cc3C#N)CC2)cc1,i,2.1
O=C(Cn1c(=O)oc2cc(S(=O)(=O)N3CCc4ccccc43)ccc21)NC1CCCC1,.,-0.3
CCOc1ccccc1NC(=O)CSc1nnc2c(CC)c(C)nc(N)n12,i,1.4
Cc1cccc(-n2c(Cc3cc(=O)[nH]c(=O)[nH]3)nnc2SCC(=O)NCC2CCCO2)c1 (stereo not given),.,0.7
CC(=O)n1nc(-c2ccco2)nc1N,.,-3.5
O=C(CNS(=O)(=O)c1cccs1)N1CCN(c2ccccn2)CC1,.,1.8
COC(=O)C1=[N+]([O-])OC(C(=O)OC)C1c1c[nH]c2ccccc12 (stereo not given),.,-0.7
Fc1ccc(-c2nnc(NC3=NCCCCC3)o2)cc1,.,-1.4
O=c1ccc(S(=O)(=O)N2CCC(Cc3ccccc3)CC2)c[nH]1,i,-0.6
CCOC(=O)c1sc2nc(CC(=O)OC)nc(N3CCN(c4ccccn4)CC3)c2c1C,.,0.7
CCOC(=O)c1c(NC(=O)c2nn(CC)cc2Br)c(C#N)cn1-c1ccccc1,i,0.9
COc1ccc2nc(C)cc(N3CCOCC3)c2c1,i,-4.6
CC1CCCCN1S(=O)(=O)c1cccc2cccnc12 (stereo not given),.,-0.5
CN(C)c1ccc(O)c2c1CC1CC3[C@@H](N(C)C)C(=O)C(C(N)=O)=C(O)[C@]3(O)C(=O)C1=C2O (stereo not given in full),i,-0.5

# Structures shown so far with a halogen:
SMILES,VCAM-1 up,26S disassembly
Cn1c(=O)cc(OCC(=O)NCCCN2CCN(c3ccccc3F)CC2)c2ccccc21,.,-1.2
O=C(Cn1cnc2c(nnn2Cc2ccc(Cl)cc2)c1=O)OCc1ccccc1,.,-0.4
Cc1onc(-c2c(Cl)cccc2Cl)c1C(=O)NCCCN1CCOCC1,i,0.6
CCOC(=O)N1CCN(C(=O)c2ccc3nc4cc(Cl)ccc4c(=O)n3c2)CC1,i,0.9
O=C(NCCCN1CCN(c2ccccc2F)CC1)C1CCC(=O)N1C1CCCC1 (stereo not given),.,0.1
COc1ccccc1N1CCN(C(=O)c2cc3cc(Br)ccc3oc2=O)CC1,.,-0.5
COC1CCCCC1NS(=O)(=O)c1ccc(Cl)cc1 (stereo not given),.,1.7
COc1ccc(-c2[nH]c(-c3ccc(F)cc3)nc2SCC(=O)NCc2ccco2)cc1OC,.,2.0
CN(C)C(CNS(=O)(=O)c1ccc(Br)cc1)c1cccnc1 (stereo not given),.,1.3
Cn1cccc1Cc1nnc(SCC(=O)Nc2ccccc2)n1-c1ccc(F)cc1,.,-0.1
Cc1cc(N2CC(C(=O)O)CC2=O)ccc1Br (stereo not given),.,-1.6
O=C1NC2(CCCCC2)N=C1c1ccc(F)cc1,.,1.0
O=C(NCC1CCCO1)C1CC(=O)N(c2ccc(F)c(Cl)c2)C1 (stereo not given),.,-0.1
Fc1ccc(C2CC(c3ccccc3)Nc3ncnn32)cc1 (stereo not given),.,0.9
O=C(CSc1nccn1-c1ccc(F)cc1)Nc1ccc2c(c1)OCO2,.,-1.6
O=C(CN1CC(=O)Oc2ccccc21)OCC(=O)c1cccc(Br)c1,.,0.8
O=C1NCCN1Cc1ccccc1F,.,-2.7
Fc1ccc(-c2nnc(NC3=NCCCCC3)o2)cc1,.,-1.4
CCOC(=O)c1c(NC(=O)c2nn(CC)cc2Br)c(C#N)cn1-c1ccccc1,i,0.9
